High-throughput results from PubChem BioAssay.
ALR H2O2 inh: inhibitors of human ALR sulfhydryl oxidase, primary screen, biochemical, H2O2 detection, HRP-luminol luminescence, single point. purified ALR, DTT oxidation. FAD-linked sulfhydryl oxidase ALR (Homo sapiens), P55789. inhibition, % (test concentration not listed). hit rate 3.8% among 290,000. AID 485317, 2010;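 active = mean and each replicate at 75% or more; inconclusive = only one of the two met; inactive = neither met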;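 note: stock transfer was 7.5 nL into about 7.5 µL; 0% = neutral wells and 100% = wells with inactivated enzyme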
LANA-H2A inh: blockers of LANA interaction with H2A/H2B – biochemical, FP readout, HTS, primary screen | cell-free LANA-H2A/H2B peptide, fluorescence polarization | inhibition, % (no concentration beside the values) | AID 2629, 2010 | Protein LANA1 (Human herpesvirus 8 type P (isolate GK18)), Q9QR71 | hit rate 0.6% among 320,000; in the data active = inhibition mostly above about 10%, no sharp cut-off; inactive = mostly below about 6.7%;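 note: stock transfer was 7.5 nL into about 10 µL; 0% = median of vehicle wells and 100% = median of positive control wells; one replicate is shown; the record names a cut of 25% in any replicate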
Target sequence (Q9QR71 whole entry, looked up): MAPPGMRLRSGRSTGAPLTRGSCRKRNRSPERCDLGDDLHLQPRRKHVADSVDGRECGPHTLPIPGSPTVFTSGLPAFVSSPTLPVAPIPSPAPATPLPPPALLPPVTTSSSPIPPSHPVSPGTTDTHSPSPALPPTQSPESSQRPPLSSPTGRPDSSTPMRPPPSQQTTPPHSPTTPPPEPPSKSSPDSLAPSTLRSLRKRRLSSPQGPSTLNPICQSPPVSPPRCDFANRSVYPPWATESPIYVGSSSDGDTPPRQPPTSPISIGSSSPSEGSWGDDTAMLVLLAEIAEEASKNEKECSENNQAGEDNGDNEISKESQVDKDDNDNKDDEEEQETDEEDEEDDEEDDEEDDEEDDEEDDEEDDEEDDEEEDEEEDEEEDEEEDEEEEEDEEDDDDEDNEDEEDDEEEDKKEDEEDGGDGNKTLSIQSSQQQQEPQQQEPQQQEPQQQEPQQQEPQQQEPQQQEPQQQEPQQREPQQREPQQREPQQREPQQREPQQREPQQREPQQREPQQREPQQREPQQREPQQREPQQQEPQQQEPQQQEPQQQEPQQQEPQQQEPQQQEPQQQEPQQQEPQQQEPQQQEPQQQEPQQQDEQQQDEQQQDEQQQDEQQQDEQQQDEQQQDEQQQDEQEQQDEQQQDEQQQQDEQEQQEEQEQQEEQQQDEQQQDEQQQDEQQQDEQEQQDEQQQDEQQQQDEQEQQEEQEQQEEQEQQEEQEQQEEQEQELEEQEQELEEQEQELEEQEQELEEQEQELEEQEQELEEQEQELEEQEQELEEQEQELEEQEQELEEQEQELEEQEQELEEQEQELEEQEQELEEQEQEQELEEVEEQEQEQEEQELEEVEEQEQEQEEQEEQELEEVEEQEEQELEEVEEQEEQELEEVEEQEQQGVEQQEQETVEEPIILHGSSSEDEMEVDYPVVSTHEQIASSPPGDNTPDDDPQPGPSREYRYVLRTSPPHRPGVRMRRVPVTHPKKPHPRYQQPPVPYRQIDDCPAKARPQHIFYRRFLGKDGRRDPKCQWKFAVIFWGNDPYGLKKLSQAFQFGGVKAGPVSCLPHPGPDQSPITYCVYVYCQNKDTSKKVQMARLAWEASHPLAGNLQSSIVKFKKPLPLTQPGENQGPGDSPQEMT
Calb FLC: C. albicans growth inhibition with fluconazole, primary screen, CaCi-2 strain, Alamar Blue fluorescence; C. albicans CaCi-2 (fluconazole-resistant clinical isolate) + fluconazole, 48 h; hit rate 0.57% among 300,000; growth inhibition, % (no concentration beside the values);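 active = most replicates above 75%; inconclusive = exactly half above 75%; inactive = most below 75%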;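 note: all wells also contain fluconazole at 8 µg/ml as a sub-toxic cotreatment; 0% = median of DMSO wells and 100% = median of geldanamycin control wells; wells of about 8 µL received 7.5 nL stock; the first replicate is given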
B2AR ag: beta2AR agonists driving receptor internalization, primary screen, cell-based, FAP fluorogen, flow cytometry. Am2.2-beta2AR cells; reference of the scale not given here. response, % (concentration not given with the values). hit rate 0.43% among 340,000;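 active = response above a set limit, near 3 SD of response in nonfluorescent compounds, cut at about 42% in these data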;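 note: stock transfer was 100 nL into about 11 µL; a reference agonist was the positive control; negative values mostly stem from fluorescent compounds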
Vif TR-FRET: inhibitors of Vif binding to APOBEC3G peptide, primary screen, biochemical, TR-FRET, GST-Vif 1-94, biotin-A3G peptide, dose response retest (AID 1117319); one-dose inhibition, %; IC50 in µM for titrated hits; TR-FRET GST-Vif / biotin-A3G peptide binding; higher % means a stronger effect; test concentration not given here; strong numbers were not always called active; hit rate 0.57% among 260,000; Virion infectivity factor (Human immunodeficiency virus type 1 group M subtype B (isolate …;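 active = above the screen mean plus three standard deviations and confirmed in dose response; inconclusive = results disagree or hit not tested in dose response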;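 note: Vif residues 1-94 fused to GST binding biotinylated APOBEC3G peptide 110-148; 0% = full assay without inhibitor and 100% = GST in place of GST-Vif; retest series ran down from 100 µM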
HNF4A DNA FP: change in binding of human HNF4A to DNA, primary screen, biochemical, fluorescence polarization, FITC-DNA. 1 h. activity change, % at 10 µM. hit rate 0.3% among 360,000. Hepatocyte nuclear factor 4-alpha (Homo sapiens), P41235. AID 1224865, 2016; in the data active = activity change above about 30%, passing the limit was not always enough;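 note: controls were the assay level and a saturating level of protein; the project sought stronger binding though the title names inhibitors; some compounds called inactive have numbers as strong as hits; positive values seem to mean higher polarization but the record does not say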
RanGTP-Imp inh: inhibitors of RanGTP-importin-beta interaction, primary screen, biochemical, FRET, CFP-Ran, YFP-importin-beta, homogeneous. inhibition, % (no concentration beside the values). Ran GTPase (GTP-bound) - importin-beta complex. cell-free CFP-Ran/YFP-importin-beta FRET ratio. hit rate 1.1% among 300,000. AID 2216, 2009;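 active = most replicates above 15%; inconclusive = exactly half above 15%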;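 note: 0% = DMSO wells and 100% = Ran loaded with GDP instead of GTP; wells of about 40 µL received 100 nL stock; the first replicate is given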
* marks the source's active call; other numbers are inactive results; ? = inconclusive; . = not tested or not shown; & = joins results of further samples. Rows are unselected. Share with any hit: about 6.3%.

SMILES | ALR H2O2 inh | LANA-H2A inh | Calb FLC | B2AR ag | Vif TR-FRET | HNF4A DNA FP | RanGTP-Imp inh
Cc1nc(-c2ccc(S(=O)(=O)NCc3ccccn3)s2)cs1 | -9.8 | -3.3 | -1.8 | -2.8 | . | 1.9 | 1.9
COc1ccc(-c2nc(CS(=O)(=O)CC(=O)NCc3cccc(Br)c3)c(C)o2)cc1 | 22.1 | 1.1 | -3.1 | -2.1 | . | -9.3 | -1.5
COc1cc(S(=O)(=O)N2CCN(C(=O)C3CC3)CC2)ccc1NC(C)=O | -5.3 | 0.4 | . | 4.9 | . | 5.3 | .
CN(C)S(=O)(=O)c1ccc(NC(=O)c2cc(-c3cccs3)nc3ccccc23)cc1 | . | . | 5.4 | 5.0 | 7.8% | 0.1 | -1.7
Clc1cccc(Cl)c1CSc1nnc(-c2sccc2-n2cccc2)o1 | 14.8 | -3.7 | -2.2 | -5.5 | 0.2% | -4.7 | -4.1
COc1cc(C(=O)OCC(=O)Nc2c(F)cccc2F)cc(OC)c1C | -4.7 | 3.7 | 7.5 | 0.4 | -1.1% | 0.0 | -4.2
CCOC(=O)CSc1nnc(Cc2ccccc2)n1-c1cccc(Cl)c1 | -4.2 | 2.1 | -12.5 | 5.1 | 1.7% | 2.8 | -2.6
CC(C)N(Cc1nccn1C)C(=O)c1cc(COc2ccc3ncccc3c2)on1 | -14.9 | 1.0 | 5.5 | 4.0 | 16.2% | -0.7 | 3.9
NC(=O)[C@@H]1CCCN1Cc1nc(-c2ccccc2)no1 | -3.0 | 0.0 | 8.9 | 0.8 | . | 3.6 | -1.4
Cc1cccnc1NC(=O)CCNC(=O)c1ccc(Br)cc1 | -5.5 | 3.9 | -4.4 | 1.4 | . | 3.1 | 1.7
Cc1ccc(C)c(/C(O)=C2\C(=O)C(=O)N(CCCn3ccnc3)C2c2ccncc2)c1 (stereo not given) | . | 5.2 | -2.4 | -2.0 | -3.9% | 1.4 | 6.1
COc1ccccc1C(=O)Nc1ccnn1C1CCN(CC2CC=CCC2)CC1 (stereo not given) | 2.6 | 0.3 | -6.1 | -5.9 | . | -4.3 | 6.0
Cc1ccc(N(CC(=O)N2CCn3c2nc2ccccc23)S(=O)(=O)c2c(C)n[nH]c2C)cc1 | -7.7 | -1.2 | -0.7 | -9.4 | -7.2% | 4.7 | 1.2
CCOC(=O)CCCNC(=O)CCNC(=O)c1ccc(OCCC(C)C)cc1 | -1.1 | 4.6 | -2.3 | -3.1 | . | -1.2 | -1.4
CCOC(=O)c1c(C)[nH]c(C)c1S(=O)(=O)N1CCC(c2ccccc2)C1 (stereo not given) | -10.5 | 0.6 | 22.6 | -165.6 | . | -2.8 | 1.5
Cc1ccc(S(=O)(=O)N2CCN(c3nc(CN4CCCC4)nc4sc(C)c(C)c34)CC2)cc1 | -4.2 | -141.5 | . | 24.2 | -20.1% | 8.8 | .
N#Cc1c(NC(=O)CSc2n[nH]c(Cc3ccccc3)n2)oc(-c2ccccc2)c1-c1ccccc1 | 0.5 | 0.5 | -1.9 | 2.7 | 3.9%&1.0% | -2.3 | 4.5
O=C(O)CN1CCN(Cc2ccc(Cl)cc2)C1=O | -4.9 | -1.2 | -2.6 | -5.4 | -3.7% | -4.7 | -3.0
CN(Cc1ccccc1)C(=O)c1cn(C)c2ccc(S(=O)(=O)N3CCCC3)cc2c1=O | -5.5 | -2.7 | -0.5 | 11.3 | 4.2% | 2.3 | ?
Cc1cccc(C)c1NC(=O)C1(NC(=O)c2cnccn2)CCCCC1 | -2.8 | 3.0 | -3.0 | 2.2 | -3.0% | 3.4 | -1.0
O=C(N=c1ccn(-c2nc3ccccc3nc2NS(=O)(=O)c2ccc(Cl)cc2)cc1)c1cccs1 | -0.8 | -176.5 | 3.2 | 19.1 | -137.6% | 21.4 | -71.9
Cc1ccccc1-c1nc(S(=O)(=O)c2ccc(Br)cc2)c(NCc2cccnc2)o1 | -1.4 | 1.8 | 3.2 | 17.6 | -1.8% | -8.0 | -0.6
COc1ccc(C2=NOC(C(=O)Nc3cc(C)nn3-c3ccccc3)C2)cc1OC (stereo not given) | . | 2.7 | -1.8 | -0.2 | -0.3% | -1.5 | -2.8
CC(NC(=O)C(=O)N1CCCCC1)C(c1cccs1)N1CCN(c2ccccc2)CC1 (stereo not given) | 99.4* | 0.2 | 3.7 | 0.5 | . | 1.8 | 0.7
NC(=O)C1(C(N)=O)OC1c1ccc(Cl)c(Cl)c1 (stereo not given) | . | 1.7 | -11.5 | 2.4 | -1.7% | 3.6 | 1.7
COc1ccc(CCNC(=O)CC2SC(N)=NC2=O)cc1OC (stereo not given) | -4.7 | -2.0 | -12.7 | 4.6 | 3.3% | -2.9 | 2.0
Cc1[nH]nc(NNC(=O)c2ccccc2)c1[N+](=O)[O-] | 23.2 | 1.7 | 3.6 | 5.8 | -1.0% | 2.5 | 3.9
O=C(NC(=S)Nc1ccc(N2CCOCC2)cc1)c1ccccc1 | 62.2 | 1.5 | -9.5 | -8.4 | 5.5% | -0.8 | -1.3
C#CC(CC)(CC)NC(=O)c1cc(S(=O)(=O)N2CCCCC2)ccc1N1CCOCC1 | . | . | . | -1.6 | -2.7% | 2.4 | .
CCOC(=O)NN=C1CCC(c2ccccc2)CC1 (stereo not given) | -9.8 | 4.1 | 39.7 | 10.8 | . | 0.7 | -4.8
O=C(CCc1nc2ccccc2s1)OCC(=O)c1ccc[nH]1 | . | 3.7 | 8.2 | 4.8 | 6.8% | -1.1 | -1.5
CCO[C@@H]1OC(C(=O)Nc2ccccc2)=C[C@H](C)[C@H]1CCCO | -4.3 | 2.7 | 2.6 | 3.4 | . | 3.8 | 0.0
Cc1ccc(C(=O)CSc2nnc(COc3ccccc3)o2)cc1 | -6.9 | 0.1 | -1.7 | 7.9 | 4.1% | 2.6 | 2.2
Cc1ccc(C(=O)N2CCCC(N(C)Cc3ccccc3)C2)s1 (stereo not given) | -7.5 | -1.4 | 6.7 | 8.8 | . | 2.5 | 3.1
Cc1c(C(=O)Nc2cccc(S(=O)(=O)N3CCCC3)c2)oc2ccccc12 | -3.1 | 3.6 | 8.2 | -4.8 | -0.8% | 3.8 | 1.7
CCOC(=O)c1sc(NC(=O)CSc2nc3ccccc3s2)c(C(=O)OCC)c1C | -1.7 | 3.2 | -3.9 | . | -0.6% | . | -0.8
CC(C)C(C)(C#N)NC(=O)CSc1nc2scc(-c3ccccc3)c2c(=O)[nH]1 (stereo not given) | 5.9 | 1.1 | 17.6 | 8.9 | -2.5% | 1.6 | -2.4
Cc1ccc(C)n1CCN1CCN(C(=O)CC#N)CC1 | -2.4 | -7.0 | 19.1 | -7.0 | 9.6% | 4.5 | 7.2
CC(=O)NCc1ccc(-c2csc(N)n2)s1 | -2.7 | 1.7 | -1.6 | -3.9 | 7.9% | 1.9 | 3.7
COc1cccc(C2CC(c3ccccc3)n3ncnc3N2)c1 (stereo not given) | -8.8 | -1.3 | 7.9 | -7.8 | 2.9% | 3.5 | 2.2
COc1ccc(OC)c(C(=O)CSc2nnnn2C)c1 | 26.5 | -4.7 | -13.1 | -3.6 | 73.2% | 3.0 | 0.7
COc1ccc(CCNc2ncnc3sc(C)cc23)cc1OC | 31.7 | 11.2 | 106.8* | -5.7 | . | -1.6 | -0.7
Cn1nc(C(=O)NCc2cccc(F)c2)cc1C(=O)NCc1cccc(F)c1 | -1.7 | . | . | -6.2 | -8.2% | 2.1 | .
CN1CCN(C(=O)c2ccccc2NC(=O)c2ccc(C(C)(C)C)cc2)CC1 | -0.7 | -3.0 | 10.1 | -11.1 | . | -5.8 | 7.7
C/C(CCc1oc2ccccc2c1-c1ccc(C)o1)=N/O | 1.7 | -2.4 | -5.6 | 7.9 | 7.0% | 2.4 | -2.2
COc1cccc(/C=N\NC(=O)C2=NNC(=O)C2C)c1O (stereo not given) | ? | -3.3 | 69.4 | -10.7 | ? | 0.1 | 1.9
COc1cccc(NC(=O)CSc2nc3ccccc3c(=O)n2CCCC(=O)N2CCCC2)c1 | -10.0 | -2.9 | -27.5 | -3.1 | 1.1% | 2.3 | -1.1
CCc1cc(=O)oc2c3c(cc(OCC(=O)NCCCn4ccnc4)c12)OC(C)(C)CC3 | -1.6 | -4.0 | -7.3 | -10.4 | . | 0.4 | 3.9
Cc1c(C(N)=O)cc([N+](=O)[O-])cc1[N+](=O)[O-] | . | . | . | 4.3 | 5.0% | 1.9 | .
O=C(COC(=O)Cn1cnc2ccccc21)Nc1ccc(F)c(F)c1 | -4.0 | -1.6 | . | -6.0 | -5.0% | 4.8 | .
Cc1ccc(Nc2c(-c3ccccn3)nc3ccc(C)cn23)cc1 | 44.4 | 1.9 | ? | 37.5 | . | 5.5 | 2.8
Brc1ccc2oc(-c3ccn[nH]3)cc2c1 | -6.4 | 0.2 | -13.6 | 2.1 | 11.7% | 2.3 | 0.0
O=C(Nc1ccc(OC(F)(F)F)cc1)c1ccc2nccnc2c1 | -5.7 | 1.8 | 2.2 | 10.6 | -22.2% | 4.7 | -2.2
CN(C)c1nc(N(C)C)nc(N2CCCCC2)n1 | 0.4 | 4.3 | -12.9 | 0.8 | -0.9% | -1.5 | 3.4
COc1ccc(CNC(=O)c2ccc3c(c2)N(C)C(=O)CS3=O)cc1 (stereo not given) | 4.3 | -2.4 | 4.4 | -2.8 | -3.2% | -2.6 | -3.1
O=C1C2CCCCC2C(=O)N1Cc1ccccc1 (stereo not given) | -2.7 | 1.9 | -4.5 | 1.6 | 1.3% | -2.0 | .
CCc1ccc(-c2csc(NC(=O)C3=COCCO3)n2)cc1 | 41.6 | -0.1 | . | -2.6 | . | 3.9 | .
O=C(COC(=O)COc1cccc(C(F)(F)F)c1)Nc1ccc(N2CCOCC2)cc1 | . | -0.2 | . | -15.3 | 1.9% | -1.6 | .
C=CCNC(=S)/C(=C(/[O-])c1ccccc1Br)[n+]1ccccc1 | -4.8 | 3.3 | -3.0 | -3.9 | . | 1.4 | -2.3
O=C(NCCCO)/C(=C\C=C\c1ccccc1)NC(=O)c1ccccc1Cl | 30.2 | 9.1 | 0.9 | 14.2 | 0.3% | -2.4 | -3.5
COc1ccc(OC(=O)COc2ccc(C)cc2)cc1 | 6.1 | -5.7 | 31.0 | -4.1 | 1.6% | -1.2 | -3.4
Cc1ccc(Nc2nc(N/N=C\c3ccc4c(c3)OCO4)nc(N3CCOCC3)n2)cc1 | -1.3 | 3.7 | 51.5 | 25.1 | 25.5% | -1.8 | 0.4
COc1cccc(-c2csc(N3CCN(CC(=O)NNC(=O)c4ccco4)CC3)n2)c1 | 25.1 | 1.4 | 27.4 | 5.0 | . | -5.0 | .

Limited to Vif TR-FRET, ALR H2O2 inh and RanGTP-Imp inh, for some of the entries so far:
compound	Vif TR-FRET	ALR H2O2 inh	RanGTP-Imp inh
COc1ccc(OC)c(C(=O)CSc2nnnn2C)c1	73.2%	26.5	0.7
COc1ccc(CCNc2ncnc3sc(C)cc23)cc1OC	.	31.7	-0.7
